ClpP mod: qHTS Assay for Activators of ClpP. purified B. subtilis ClpP, FRET peptide cleavage, 20 min. Potency, µM (doses to about 57.5 µM), for the others: at the top dose activity change, negative = active. actives 1.9% (n = 340,000). AID 651965, 2013; active = well fitted falling curve with a large enough effect; inconclusive = small, poorly fitted or top-dose-only effect; inactive = no such curve, though single readings can be large or run the other way; also: potency is read from the fitted curve at half-maximal effect; the source files actives as falling curves though it sought activators and does not explain the sign; nearly all actives have a fitted effect of over 65% in size; many hits overshoot -100%
Target sequence (P80244 whole entry, looked up): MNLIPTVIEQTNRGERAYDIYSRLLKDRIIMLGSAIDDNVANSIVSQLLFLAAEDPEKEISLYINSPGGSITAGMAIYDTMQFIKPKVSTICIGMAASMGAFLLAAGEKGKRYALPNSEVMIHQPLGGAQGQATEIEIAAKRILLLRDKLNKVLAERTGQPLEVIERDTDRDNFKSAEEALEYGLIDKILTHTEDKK
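Buffer: 100 mM Tris/HCl pH8, 100 mM KCl, 0.05% low protease BSA, 2.5% glycerol, 0.01% Tween-20. ClpP 10 microg/mL final; 20 min RT; delta FRET normalized to ADEP and DMSO controls.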
gsp antagonist: qHTS for Antagonists of gsp, the Etiologic Mutation Responsible for Fibrous Dysplasia/McCune-Albright Syndrome: qHTS. gsp-mutant cells, cAMP HTRF, 30 min; control for the full effect not named in the record. Potency, µM (highest dose often 76.9 µM), without a hit: at the top dose activity change, negative = inhibition, usual class: inhibitors. actives 0.4% (n = 340,000). AID 624288, 2012; active = falling curve of any shape with a large fitted effect; inconclusive = falling curve, mostly with a smaller effect; inactive = flat or rising curve; cell line not stated here;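 also: intracellular cAMP measured with PDE inhibitor Ro 20-1724 present during compound exposure; potency is read from the fitted curve at half-maximal effect; % is scaled to controls: 0 for no effect and ±100 for the full control effect; nearly all actives have a fitted effect of over 65% in size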
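HTRF cAMP read-out (cAMP-d2 plus anti-cAMP antibody-K in lysis buffer, 30 min RT). Before lysis, cells are exposed to compounds with […] for 30 min at 37C in DPBS containing Ca/Mg, BSA and Tween 20.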
D2 potentiator: Beta-Arrestin HTS for Positive Allosteric Modulators of the Human D2 Dopamine Receptor: Potentiators; D(2) dopamine receptor (Homo sapiens), P14416; DiscoveRx D2 beta-arrestin cells, luminescence, 90 min; 100% = 57 uM dopamine signal; potentiation, % (test concentration not listed); actives 0.23% (n = 360,000); AID 624464, 2012; active = potentiation of 50% or more; inconclusive = 30% to 50%; inactive = 30% or less;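 also: compound concentration not given in the record; tested on top of an EC20 dose of dopamine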
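D2 cells co-treated with compound plus 50 nM dopamine (EC20) for 90 min at 37 deg C to detect potentiation. Beta-arrestin recruitment was read as enzyme-fragment luminescence after 1 h at ambient temperature. Full response was set by 57 uM dopamine.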
Sfp PPTase inh: qHTS Assay for Inhibitors of Bacillus subtilis Sfp phosphopantetheinyl transferase (PPTase) | 4'-phosphopantetheinyl transferase ffp (Bacillus subtilis), Q9F4F7 | Biochemical Sfp PPTase activity, qHTS | Potency, µM, for the others: max response, negative = inhibition, most hits filed as inhibitors | actives 3.5% (n = 310,000); active = well fitted inhibition curve with a large enough effect; inconclusive = small, poorly fitted or top-dose-only effect, or another doubt; inactive = no such curve, though single readings can be large or run the other way;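 also: the enzyme is Sfp with the accession as filed and its product quenches rhodamine fluorescence; potency is read from the fitted curve at half-maximal effect; 0% = enzyme reaction without inhibitor and -100% = no enzyme wells; top concentration of the series not given in the record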
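Sfp 15 nM + cpd, 15 min RT; start w/ rhodamine-CoA 5 uM, BHQ-2-YbbR 12.5 uM (final); 50 mM Hepes pH 7.6, 10 mM MgCl2, 0.01% NP-40, 0.01% BSA; read 525/598 nm at 0 and 30 min.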
TRPV1 PAM: HTS Assay for Compounds that Act as Potentiators of the Vanilloid Receptor 1; potentiation, % at 8.33 µM; Transient receptor potential cation channel subfamily V member 1 (Homo sapiens), Q8NER1; AID 540277, 2011; actives 0.02% (n = 320,000); TRPV1-expressing cells, Fluo-8 calcium influx, capsaicin EC20 potentiation; host cell line not named in the record; control for the full effect not named in the record; active means potentiation above 80%; inconclusive means 30% to 80%; inactive means below 30%; also: 0% is about no effect
Target sequence (Q8NER1 whole entry, looked up): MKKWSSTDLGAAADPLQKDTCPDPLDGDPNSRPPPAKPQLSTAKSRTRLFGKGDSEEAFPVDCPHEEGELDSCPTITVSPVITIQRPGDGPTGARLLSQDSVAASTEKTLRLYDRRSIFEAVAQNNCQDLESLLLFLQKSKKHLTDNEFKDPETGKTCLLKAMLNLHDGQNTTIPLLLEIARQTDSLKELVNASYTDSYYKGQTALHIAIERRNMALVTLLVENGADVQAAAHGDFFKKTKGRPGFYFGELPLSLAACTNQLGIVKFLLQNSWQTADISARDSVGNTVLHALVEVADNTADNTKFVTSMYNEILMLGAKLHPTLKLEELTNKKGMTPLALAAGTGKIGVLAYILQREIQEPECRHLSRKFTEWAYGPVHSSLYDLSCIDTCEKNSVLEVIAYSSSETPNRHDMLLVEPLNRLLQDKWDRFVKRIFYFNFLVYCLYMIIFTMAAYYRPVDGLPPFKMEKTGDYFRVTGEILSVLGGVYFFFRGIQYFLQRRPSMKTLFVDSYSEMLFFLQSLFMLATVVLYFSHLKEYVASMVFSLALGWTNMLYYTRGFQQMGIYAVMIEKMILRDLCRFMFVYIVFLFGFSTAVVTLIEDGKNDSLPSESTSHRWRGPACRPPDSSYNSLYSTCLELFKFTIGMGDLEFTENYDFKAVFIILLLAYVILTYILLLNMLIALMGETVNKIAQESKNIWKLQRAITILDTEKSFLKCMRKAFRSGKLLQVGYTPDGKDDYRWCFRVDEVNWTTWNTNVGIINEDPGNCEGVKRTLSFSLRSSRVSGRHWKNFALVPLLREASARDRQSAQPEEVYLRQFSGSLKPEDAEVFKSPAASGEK
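TRPV1-expressing cells were cultured overnight at 35.5C and loaded with Fluo-8 calcium dye for 40 to 90 min at room temperature. After a 10 s baseline, compound was added and calcium influx was read kinetically for 3 min (ex 480/em 520 nm).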
Menin-MLL FL inh: qHTS Assay for Inhibitors Targeting the Menin-MLL Interaction in MLL Related Leukemias: Competition With Fluorescein Labeled MLL-derived Peptide; Fluorescence polarization, fluorescein-MLL peptide displacement from menin; FP activity change, % at 61.4 µM; 290,000 tested, under 10 active; inconclusive = falling polarisation curve, or a change in total fluorescence; inactive = total fluorescence flat and polarisation flat or rising; no compound was filed as active; the % refers to the polarisation; negative = inhibition;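 also: % of control where 0% means no effect; inhibitors lower the polarisation; unlabelled MLL peptide was the positive control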
gsp ag: qHTS for Agonist of gsp, the Etiologic Mutation Responsible for Fibrous Dysplasia/McCune-Albright Syndrome: qHTS; gsp mutant cells, cAMP HTRF, 30 min; control for the full effect not named in the record; Potency, µM (highest dose often 76.9 µM), for inactives: at the top dose activation (cAMP increase), actives largely listed as activators; actives 0.13% (n = 340,000); AID 624287, 2012; active = well fitted activation curve with a large enough effect; inconclusive = small, poorly fitted or top-dose-only effect, or another doubt; inactive = no such curve, though single readings can be large or run the other way; cell line not stated here;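 also: phosphodiesterase inhibitor Ro 20-1724 added with compounds to block cAMP breakdown; potency is read from the fitted curve at half-maximal effect; nearly all actives have a fitted effect of over 60% in size; about a fifth of the inactives were tested at one dose only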
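Cells stably selected in G418 were plated at 2000/well, grown 16-24 hr, then given compounds in DMSO with the PDE inhibitor […] (300 uM solution added) for 30 min at 37C; cAMP was read by HTRF.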
* marks the source's active call; other numbers are inactive results; u = inconclusive; x = no result given; & = joins results of further samples; [ ] = another dose, or the depositor's remark.

SMILES	ClpP mod	gsp antagonist	D2 potentiator	Sfp PPTase inh	TRPV1 PAM	Menin-MLL FL inh	gsp ag
Cc1ccc(Cl)cc1NC(=O)C(Cc1ccccc1)N1C(=O)C2C3CCC(C3)C2C1=O (stereo not given)	-1.5%	-20%	-3	6%	-20	1.0	-2%[15.4 µM]
CCS(=O)(=O)N1Cc2ccccc2CC1C(=O)Nc1cccc(S(=O)(=O)N(C)C)c1 (stereo not given)	-0.7%	5%	-10	4%	21	-0.4	28%
CCN(C(=O)COC(=O)c1cc(OC)ccc1Br)C1CCS(=O)(=O)C1 (stereo not given)	x	8%	-5	x	x	x	3%
COc1ccccc1-n1c(CNC(=O)c2ccccc2)nnc1SCC(=O)Nc1nnc(C)s1	-0.1%	1%	-4	3%	-1	0.9	u
O=C(Nc1ccc(-c2cscn2)cc1)C1CCCN(Cc2ccccc2)C1 (stereo not given)	-3.8%	14%	-28	5%	-11	x	-3%
O=C1CCCN1CCCNC(=S)Nc1ccccc1Cl	x	8%	7	14%	3	-2.4	-7%[15.4 µM]
CCCCCCn1c(Br)nc2c1c(=O)n(C)c(=O)n2C	x	5%	-3	-21%	3	2.5	0%[15.4 µM]
O=c1cc(-c2ccco2)oc2ccccc12	x	-14%	0	x	x	x	11%
CCOC(=O)NC(=S)c1ccc[nH]1	x	-9%	-11	-54%	5	1.1	1%[15.4 µM]
CCC(C)NS(=O)(=O)c1cccs1 (stereo not given)	1.0%	12%	-4	11%	-25	6.8	u
Cc1ccc(NC2CCCN(C(=O)CCC3(C)CC3)C2)cc1C (stereo not given)	-0.3%	-4%	7	3%	-3	x	9%[15.4 µM]
c1ccc(CC2CNc3ccccc3CN2)cc1 (stereo not given)	-2.4%	2%	-13	7%	2	2.7	12%
CC(C)N=c1scc(-c2ccco2)n1/N=C/c1ccc(O)c(O)c1	-6.4%	u	15	u	0	2.9	23%
O=C(O)c1ccc(N2C(=O)c3cccnc3C2=O)cc1	x	17%	-7	-27%	0	0.2	0%[15.4 µM]
Cc1cc(OCc2nc(-c3cccs3)no2)cc(C)c1Cl	1.5%	-2%	-5	-17%	-7	4.2	4%
CCN(CC)C(=O)C1CCN(Cc2ccc(Br)cc2)CC1	-4.4%	9%	-10	-18%	-27	1.4	-23%
O=C(COc1ccccc1)N=C1SC2CS(=O)(=O)CC2N1c1ccccc1 (stereo not given)	0.3%	-5%	-1	14%	0	-2.9	u
COc1cc(OC)c(C2C(C(=O)Nc3ccccc3)=C(C)Nc3ncnn32)cc1OC (stereo not given)	-0.4%&-0.9%	9%	-11	18%	-5	2.3	-40%[inhibitor]
CCOc1ccc2[nH]c(C)c(CN3CCCCC3)c(=O)c2c1	294%	4%	-3	18%	6	3.4	7%
COc1ccc(N2CC(C(=O)N3CCN(Cc4ccc5c(c4)OCO5)CC3)CC2=O)cc1 (stereo not given)	x	-36%	-11	3%	-11	3.3	22%[15.4 µM]

Reprinted from the part before: two entries, followed by the next part.
SMILES	ClpP mod	gsp antagonist	D2 potentiator	Sfp PPTase inh	TRPV1 PAM	Menin-MLL FL inh	gsp ag
CCOc1ccc2[nH]c(C)c(CN3CCCCC3)c(=O)c2c1	294%	4%	-3	18%	6	3.4	7%
COc1ccc(N2CC(C(=O)N3CCN(Cc4ccc5c(c4)OCO5)CC3)CC2=O)cc1 (stereo not given)	x	-36%	-11	3%	-11	3.3	22%[15.4 µM]
Nc1cc([N+](=O)[O-])ccc1Nc1ccccc1	x	-11%	-7	17%	1	3.3	-3%[15.4 µM]
CCC(CO)Oc1cc(NC(=O)c2ccccc2)c2ncn(C(C)C)c2c1 (stereo not given)	-1.0%	-10%	8	x	-12	x	-8%
O=C(C1=C(O)C(=O)N(Cc2ccccc2)C1c1ccco1)c1ccco1 (stereo not given)	-2.2%	12%	11	7%	9	5.0	-5%
CN(C)CC(O)COC(c1ccc(Cl)cc1)c1ccc(Cl)cc1 (stereo not given)	x	17%	-11	7%	9	2.7	14%
O=C(Nc1ccc(Br)cn1)c1cccc2c1-c1ccccc1C2=O	0.6%	20%	-7	11%	10	-1.8	-2%
CCCc1cc(=O)n2[nH]c(CCc3ccccc3)nc2n1	0.5%	-21%	13	10%	9	0.0	7%
Cc1ccc2[nH]c(=O)c3cc(C(=O)N(CCCOC(C)C)Cc4ccco4)sc3c2c1	4.2%&3.8%	-23%	-9	u	1	1.0	-3%
CN(C)S(=O)(=O)c1cccc(COC(=O)CNC(=O)c2ccc(Br)o2)c1	1.0%	0%	-4	x	4	x	5%[15.4 µM]
Cc1ccc(S(=O)(=O)c2ccc([N+](=O)[O-])cn2)cc1	x	-2%	24	u	13	-14	-4%[15.4 µM]
COc1ccccc1/C=C/CN1CCN(c2ccccc2)CC1	-2.6%	6%	7	-15%	1	1.5	-43%[inhibitor]
Cc1ccc(SCC(=O)Nc2cccc(NC(=O)c3ccco3)c2)cc1	1.8%	2%	-16	15%	7	3.7	-43%[inhibitor]
O=c1[nH]c(=O)n(CCO)c2nnn(Cc3ccccc3)c12	0.5%	4%	-3	14%	6	-0.4	-12%
CCOC(=O)C1C(=O)C=C(c2cccs2)CC1c1ccccc1 (stereo not given)	1.6%	-14%	-19	6%	-1	-0.2	-36%[inhibitor]
O=C(NCc1ccc(F)cc1)C1CCN(S(=O)(=O)c2ccc(N3CCCC3=O)cc2)CC1	1.0%	x	-11	x	x	x	4%
CCOc1cc(/C=N/Nc2ncc(C)c(=O)[nH]2)ccc1O	x	1%	8	-28%	3	-0.2	-5%[15.4 µM]
Brc1ccc(-c2csc(N/N=C/c3ccco3)n2)cc1	x	-8%	8	6%	-2	-0.2	28%
COc1ccc(/C=C2\N=C(C)OC2=O)cc1OC(C)=O	-5.6%	-15%	-11	-17%	0	-0.4	-52%[inhibitor]
CS(=O)(=O)c1ccccc1C(=O)N1CCN(S(=O)(=O)c2ccc(C3CCCCC3)cc2)CC1	-3.1%	-6%	12	x	8	x	-56%[inhibitor]
CC1Cc2ccccc2N1C(=O)CSc1nnc2n1C(C)(C)Cc1ccccc1-2 (stereo not given)	0.8%	-23%	-12	11%	-15	1.4	-6%
NC(=S)N/N=C/c1ccc(-c2cc(Cl)cc(Cl)c2)o1	27%	-5%	-22	50µM*	-1	2.0	10%
O=C(C[C@@H]1C/C=C\C[C@H](NC(=O)OCC2c3ccccc3-c3ccccc32)C(=O)OC[C@@H]2CCCN2C1=O)N[C@@H](CO)Cc1ccccc1	-6.8%	-3%	-11	x	x	x	x
CC1CCCN(C(=S)Nc2ccc(S(=O)(=O)N3CCCCC3)cc2)C1 (stereo not given)	x	-4%	-6	4%	-14	-4.3	u
O=C(NCC1CC1)c1ccc2c3n(nc2c1)-c1ccc(Cl)cc1CO3	-20%	-23%	-11	x	x	x	23%
O=C(OCc1cn([C@H]2CN(C(=O)C3CCCCC3)[C@@H](c3ccccc3)C[C@@H]2O)nn1)c1ccccc1	0.1%	x	-3	x	x	x	-42%[inhibitor]
CCN(CCCNC(=O)C1CCN(S(=O)(=O)c2c(C)[nH]c(=O)[nH]c2=O)CC1)c1cccc(C)c1	-0.5%	-3%	-1	15%	-2	3.2	-9%
O=C(CSc1n[nH]c(-c2ccncc2)n1)Nc1ccc(F)cc1	x	-5%	2	9%	1	-0.8	4%[15.4 µM]
CC(C)=CCN1CCC(n2nccc2NC(=O)c2ccccc2Cl)CC1	-0.2%	-10%	-24	16%	-2	x	u
CCc1c(C)nc2ncnn2c1NC1CCCc2ccccc21 (stereo not given)	-3.4%	-12%	-10	6%	3	-0.4	-1%[15.4 µM]
COc1ccc(NC(=O)[C@H](C)NC(=O)[C@@H]2Cc3ccccc3CN2C(=O)OC(C)(C)C)cc1	0.7%	-6%	3	11%	-8	1.1	-23%
CN(CCOc1ccccc1Cl)Cc1ccccc1	1.5%	10%	-3	u	1	-1.8	4%
COc1ccc(S(=O)(=O)CCc2nc3ccccc3s2)cc1	-0.2%	7%	-2	-19%	u	2.1	11%
CCOC(=O)c1ccc2[nH]cc(C(C)=O)c(=O)c2c1	-16%	-8%	-1	5%	-8	u	20%
CN(C)[C@H]1N(C(=O)c2ccc(Br)cc2)N=C2c3ccccc3S(=O)(=O)N21	-21%	-9%	2	-3%	15	3.9	-22%
CNC(=O)c1sc(Nc2ccc(OCc3ccccc3)cc2)nc1C	x	-17%	-3	-7%	29	-0.4	u
C=C(C)C1CC=C(C)/C(=N\NC(=O)CNc2cccc3ccccc23)C1 (stereo not given)	4.2%	-1%	-6	5%	-4	-1.0	6%
NC(=O)COc1ccccc1C(=O)NC12CC3CC(CC(C3)C1)C2	-5.9%	3%	-4	9%	9	-0.4	7%[15.4 µM]
Cn1cc(CCC(=O)NCc2cccc(Cl)c2)c2ccccc21	x	-4%	-8	-10%	1	-17	4%[15.4 µM]
COc1ccccc1NC(=O)Nc1ccccc1C(N)=O	9.5%	-21%	-5	0%	-6	0.6	2%
CCc1ccccc1NC(=O)C1=CN2CCS(=O)(=O)N=C2C=C1	u	9%	-1	x	21	x	-7%
O=C(CN1C(=O)c2ccccc2C1=O)c1ccccc1	0.7%	3%	-10	4%	2	1.1	-14%
COc1cc(S(=O)(=O)N2CCOCC2)ccc1NC(=O)CSc1n[nH]c(=O)[nH]c1=O	-2.2%	12%	-9	12%	-1	0.6	14%
COc1ccc(NC(=O)Cn2nnc(C(N)=O)c2N)c(OC)c1	2.2%	0%	-13	1%	x	4.6	6%
CCOC(=O)c1[nH]c2ccc(Br)cc2c1NC(=O)CCN1CCCC(C)(C)C1	-9.3%	4%	-29	-3%	-21	1.8	29%
